TSHR ag: agonists of human thyroid stimulating hormone receptor; HEK293-CNG-TSHR cells (CNG channel as cAMP sensor), membrane potential dye, cAMP; Potency, µM (titrated, usually from 57.1 µM), for the others: at the top dose activation, hits mostly activators; actives 0.48% (n = 73,000); active = well fitted activation curve of enough size with the parental cells flat; inconclusive = any curve in the parental cells; inactive = parental cells flat and receptor cells flat or falling; note: potency is the fitted concentration of half-maximal effect; % of control where 0% means no effect; weak receptor curves with flat parental cells got no call and are not listed
Target sequence (P16473 whole entry, looked up): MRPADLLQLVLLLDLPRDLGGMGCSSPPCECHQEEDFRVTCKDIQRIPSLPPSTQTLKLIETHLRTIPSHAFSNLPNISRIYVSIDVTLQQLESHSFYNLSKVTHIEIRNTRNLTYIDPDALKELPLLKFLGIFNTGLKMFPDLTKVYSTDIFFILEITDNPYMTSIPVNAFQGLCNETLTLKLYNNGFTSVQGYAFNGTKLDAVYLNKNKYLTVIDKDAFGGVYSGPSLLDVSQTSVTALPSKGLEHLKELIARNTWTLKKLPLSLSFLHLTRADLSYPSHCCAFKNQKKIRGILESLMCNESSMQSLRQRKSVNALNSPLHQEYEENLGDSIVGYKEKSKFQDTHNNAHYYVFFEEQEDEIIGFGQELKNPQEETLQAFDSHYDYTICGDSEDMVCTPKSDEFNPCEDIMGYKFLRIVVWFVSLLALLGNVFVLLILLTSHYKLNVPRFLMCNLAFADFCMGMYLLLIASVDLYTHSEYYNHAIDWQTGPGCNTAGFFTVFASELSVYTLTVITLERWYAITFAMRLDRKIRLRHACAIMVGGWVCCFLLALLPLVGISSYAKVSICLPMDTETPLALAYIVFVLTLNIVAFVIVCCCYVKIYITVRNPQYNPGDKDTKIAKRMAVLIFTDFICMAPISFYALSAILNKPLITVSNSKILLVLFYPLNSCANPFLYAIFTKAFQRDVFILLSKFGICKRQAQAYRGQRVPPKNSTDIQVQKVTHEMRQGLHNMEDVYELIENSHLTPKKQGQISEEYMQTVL
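HEK 293 cells stably expressing TSHR and a modified CNG channel, with CNG-only parental cells as counterscreen, were preloaded 60 min at room temperature with membrane potential dye containing 100 uM RO 20-1724. Compound exposure was 30 min, and depolarization was read as fluorescence at 590 nm.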
AID923: qHTS Assay for Allosteric/Competitive Inhibitors of Caspase-1: Spectroscopic Profiling in AFC Spectral Region; compound fluorescence, AFC spectral region (405/520 nm); almost no hit is shown here; Potency, µM (titrated, usually from 57.5 µM), for inactives: at the top dose fluorescence increase, usual class: activators; actives 1.1% (n = 75,000); AID 923, 2007; active = well fitted activation curve with a large enough effect; inconclusive = small, poorly fitted or top-dose-only effect;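 note: potency is the fitted concentration of half-maximal effect; 0% is about no effect; scaled to a free AFC standard on each plate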
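Baseline compound fluorescence (AFC region, 405 nm ex/520 nm em) taken from the intercept of kinetic reads with 50 nM caspase-1 and 5 uM Ac-WEHD-AFC; normalized to an on-plate AFC standard curve; compounds titrated up to 57 uM.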
A647 autofl: compound autofluorescence in A647 spectral region; 59,000 tested, under 10 active; Compound fluorescence, A647 channel (570/671 nm), Tris buffer; max dye-equivalent concentration, M; active means above 1 µM dye equivalent; inconclusive means 0.1 to 1 µM; inactive means 0.1 µM or less;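 note: values scaled relative to a standard on each plate; highest value over a series up to 38 µM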
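Fluorescence read (570 nm ex, 671 nm em) after 15 min RT incubation of compounds in 100 mM Tris buffer, pH 8.0; values expressed as dye-equivalent concentration against a six-point A647 standard series on each plate.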
A488 fluor: compound fluoresces in the A488 spectral region | compound autofluorescence, A488 spectral region, dye equivalency; stronger effect = higher value | max dye equivalency, M | actives 0.1% (n = 59,000); active = above 10 nM dye equivalent; inconclusive = 1 to 10 nM; inactive = 1 nM or less; about half of its hits are not listed in these tables;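 note: highest value over a series up to 38 µM; compound alone in buffer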
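Readout is A488 dye-equivalent concentration, calibrated by a per-plate six-point Alexa 488 series. Compounds in 100 mM Tris buffer pH 8.0 were incubated 15 min at room temperature. Plates were imaged using 480 nm excitation/540 nm emission filters.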
Resorufin fluor: resorufin region autofluorescence; AID 588; actives 0.04% (n = 59,000); Compound fluorescence, resorufin region 547/598 nm, buffer; stronger effect = higher value; max dye-equivalent concentration, M; active = above 10 nM dye equivalent; inconclusive = 1 to 10 nM; inactive = 1 nM or less; a few of its hits are not listed in these tables; note: highest value over a series up to 38 µM
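Intrinsic fluorescence profiled in the resorufin window (ex 547 nm, em 598 nm) after 15 min at room temperature in pH 8.0 Tris buffer (100 mM); responses normalized against a six-point resorufin standard series as dye-equivalent concentration.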
* hit, by the source's call; i = inactive; u = inconclusive; x = not tested or not shown; [ ] = remark or other dose. An excerpt, so the mix of outcomes need not match the whole.

SMILES	TSHR ag	AID923	A647 autofl	A488 fluor	Resorufin fluor
Fc1cccc(CN2CCN(c3ncccn3)CC2)c1	2%[11.4 µM]	-0.4%	x	x	x
CC(C)N(Cc1ccccc1)S(=O)(=O)c1n[nH]c(C(C)(C)C)n1	4%[11.4 µM]	3.8%[11.5 µM]	2.1e-08	i	i
c1ccc(C(CCN2CC3CCC(CC3)C2)c2ccccc2)cc1	13%[11.4 µM]	-2.8%[11.5 µM]	5.6e-08	i	i
Cc1ccc(-c2nc3ccccc3c(=O)n2CCCN2CCOCC2)cc1	3%	-1.3%	1.9e-08	i	i
CN(C)CCNC(=O)C(C(=O)c1ccccc1)n1ccccc1=O (stereo not given)	-6%	-0.8%	4.3e-08	i	i
CCC(=O)N1CCCc2cc(S(=O)(=O)NCc3cccs3)ccc21	1%	1.3%	1e-09	i	i
COc1ccc(Cc2nnc(NC(=O)Cc3cccs3)s2)cc1	-4%	-1.3%	5.4e-09	i	i
O=C(OCCN1C(=O)c2ccccc2C1=O)c1cccs1	10%	0.1%	x	x	x
COC(=O)c1ccc(C2/C(=C(\O)c3cccc(OC)c3)C(=O)C(=O)N2CCCN(C)C)cc1 (stereo not given)	x	x	2.7e-09	i	i
CCCNc1nc2c(c(=O)n(C)c(=O)n2C)n1Cc1cccc(C)c1	u	-1.7%	3.3e-08	i	i
CC(CC(=O)Nc1ccncc1)c1ccccc1 (stereo not given)	2%	0.5%	4.2e-09	i	i
COc1ccc(CCNC(=O)CCN2C(=O)C3CC=CCC3C2=O)cc1OC (stereo not given)	-3%	0.6%	2.8e-08	i	i
O=C(CC1OC(=O)c2ccccc21)Nc1ccccc1N1CCOCC1 (stereo not given)	3%[11.4 µM]	-1.0%	1e-09	i	i
O[C@@H](c1cc(-c2ccc(Cl)cc2)nc2ccccc12)[C@@H]1CCCCN1	0%[11.4 µM]	-1.2%[11.5 µM]	1e-09	i	i
Cc1ccccc1CN1C(=O)CSc2ccc(C(=O)N3CCOCC3)cc21	0%	-0.6%	1.9e-09	i	i
CCSc1nnc(Cn2c(=O)sc3ccccc32)n1-c1ccccc1C	10%	-0.2%	x	x	x
O=c1[nH]c(CS(=O)(=O)c2ccccc2)nc2ccccc12	32%	-0.2%	2.1e-09	i	i
CCOC(=O)c1ccc(Nc2nnc(C(C)(C)C)c(=O)[nH]2)cc1	27%	0.0%	1.9e-08	i	i
Cc1onc(-c2ccccc2)c1C(=O)Nc1sc2c(c1C#N)CCC2	29%	1.3%	x	x	x
CC(C)=CCCC(C)NC(=O)NC1CCCCC1 (stereo not given)	-15%	-0.1%	8.2e-09	i	i
O=C(c1cccc(F)c1)N1CCC2(CCN(Cc3ccccc3)CC2)CC1	4%	2.6%	1.3e-08	i	i
O=C(Nc1cc(C(F)(F)F)ccc1N1CCOCC1)C1Cc2ccccc2CN1C(=O)c1ccco1 (stereo not given)	u	0.2%	1.6e-08	i	i
Cc1ccc(NC(=O)CSCc2c(C)noc2C)cc1C	2%	-0.5%	1.8e-09	i	i
CCOC(=O)CC(=O)CSc1nc2nc(C)cc(C)n2n1	1%	1.3%	1e-09	i	i

Three entries picked at random from the list so far:
SMILES	TSHR ag	AID923	A647 autofl	A488 fluor	Resorufin fluor
O=C(Nc1cc(C(F)(F)F)ccc1N1CCOCC1)C1Cc2ccccc2CN1C(=O)c1ccco1 (stereo not given)	u	0.2%	1.6e-08	i	i
O=c1[nH]c(CS(=O)(=O)c2ccccc2)nc2ccccc12	32%	-0.2%	2.1e-09	i	i
O[C@@H](c1cc(-c2ccc(Cl)cc2)nc2ccccc12)[C@@H]1CCCCN1	0%[11.4 µM]	-1.2%[11.5 µM]	1e-09	i	i

Next records follow:
SMILES	TSHR ag	AID923	A647 autofl	A488 fluor	Resorufin fluor
O=C1c2ccccc2C(=O)N1CCC(=O)N1CCCc2ccccc21	5%	-0.7%	1.7e-08	i	i
Cc1noc(C)c1COC(=O)COc1cccc2c1OC(C)(C)C2	x	-1.9%	8.2e-09	i	i
Cc1cc(C)c2c(=O)n(CC(=O)N3CCC(Cc4ccccc4)CC3)sc2n1	-3%	-0.1%	x	x	x
COc1cccc(CN2CCN(c3cccc(C(F)(F)F)c3)CC2)c1OC	u	-1.7%	2.7e-08	i	i
CCOC(=O)c1cccc(NS(=O)(=O)c2c(C)[nH]c(=O)[nH]c2=O)c1	-5%	0.4%	3.5e-09	i	i
O=C(CCN1CCCCC1)NCNC(=O)CCN1CCCCC1	-1%	0.2%	4.5e-09	i	i
CC(=O)Nc1ccccc1OCc1nnc(-c2cccs2)o1	5%	3.8%	1.3e-09	i	i
O=C(c1cc(-c2cccs2)on1)N1CCCc2ccccc21	u	-1.4%	x	x	x
O=C(COC(=O)C1CC1)c1c[nH]c2ccccc12	1%	0.6%	4.1e-08	i	i
O=C(CSCc1ccco1)c1ccc(Cl)s1	-2%	0.2%	1e-09	i	i
Cc1cc(C)n2c(SCc3c(C)noc3C)nnc2n1	11%	-1.7%	6.2e-09	i	i
O=C(NCc1cccs1)N[C@@H](Cc1ccccc1)C(=O)O	7%	0.2%	1e-09	i	i
O=C(CSc1nnc2c3cc(F)ccc3nc(-c3ccccc3)n12)N1CCOCC1	0%	0.7%	3.5e-08	i	i
CCn1c(=O)cc(SCC(=O)Nc2ccccc2N2CCN(C)CC2)c2ccccc21	-13%	-0.1%	1e-09	i	i
CC(C)(C)c1cc(NC(=O)c2cccnc2)no1	1%	0.2%	1e-09	i	i
CC(=O)Nc1cccc(N2CCCC2=O)c1	-4%	0.8%	1e-09	i	i
CCOc1ccc(NC(=O)COC(=O)Cn2cnnn2)cc1OCC	-4%	0.2%	1e-09	i	i
CCOC(=O)c1ccc(NC(=O)Nc2cc(C)on2)cc1	-8%	0.6%	5e-08	i	i
CC1(C)NC(=O)N(CC(O)COc2ccccc2C(=O)N2CCCCC2)C1=O (stereo not given)	3%	0.4%	x	x	x
CCOC(=O)c1cccc(NC(=O)C2CCN(S(=O)(=O)c3cnc[nH]3)CC2)c1	2%	1.6%	x	x	x
CCOC(=O)N1CCC(NC(=O)CC(NS(=O)(=O)c2ccc(C)cc2)c2ccco2)CC1 (stereo not given)	-3%[11.4 µM]	-0.6%	1e-09	i	i
O=C(Nc1ccccc1C(=O)N1CCOCC1)C1COc2ccccc2O1 (stereo not given)	5%	0.9%	3.1e-08	i	i
COC(=O)C(C(=O)OC)C(C(=O)OC)C(C(=O)OC)C(=O)OC	0%	-0.8%	x	x	x
O=C(Nc1ccccc1Cl)c1ccc(S(=O)(=O)N2CCOCC2)cc1	-3%	0.1%	x	x	x
O=C(c1cccc(C(=O)N2CCN(c3ncccn3)CC2)c1)N1CCN(c2ncccn2)CC1	6%	-0.2%	1.8e-08	i	i
O=C(Nc1ccc(N2CCOCC2)c(Cl)c1)C1CCCCC1	u	0.9%	x	x	x
CCCCN(C)CCCNC(=O)c1ccc2c(c1)NC(=O)C(N1CCOCC1)S2 (stereo not given)	5%	0.9%	4e-09	i	i
CC(C)CC(=O)NC1(C(F)(F)F)C(=O)Nc2c1c(=O)[nH]c(=O)n2Cc1ccco1 (stereo not given)	6%	1.5%	4.3e-08	i	i
COc1cccc(Oc2ccc(N)cn2)c1	-1%	-0.2%	2e-08	i	i
CNC(=O)N(C1=NCC(C)(C)S1)c1ccc(F)c(Cl)c1	u	-2.8%	x	x	x
COC(=O)Cc1csc(Nc2c(C)n(C)n(-c3ccccc3)c2=O)n1	1%	-0.1%	2.3e-08	i	i
FC(F)(F)c1cccnc1N1CCN(c2ncnc3nc[nH]c23)CC1	u	-1.5%	x	x	x
Cc1cc(S(=O)(=O)N2CCN(c3ccc(F)cc3)CC2)c(C)s1	u	0.1%	x	x	x
COCCNc1nc(C(C)(C)C)nc2c1nnn2Cc1ccccc1Cl	u	1.0%	3.4e-08	i	i
O=C1NC(Nc2ccccn2)(C(F)(F)F)C(=O)N1c1ccc(F)cc1 (stereo not given)	x	-0.6%	2.1e-08	i	i
O=C(NCc1ccccc1)/C(=N\O)c1ccccc1	x	x	5.3e-09	i	i

Ordered by molar mass (ascending): 3 of the compounds above.
SMILES	TSHR ag	AID923	A647 autofl	A488 fluor	Resorufin fluor
FC(F)(F)c1cccnc1N1CCN(c2ncnc3nc[nH]c23)CC1	u	-1.5%	x	x	x
O=C1NC(Nc2ccccn2)(C(F)(F)F)C(=O)N1c1ccc(F)cc1 (stereo not given)	x	-0.6%	2.1e-08	i	i
COCCNc1nc(C(C)(C)C)nc2c1nnn2Cc1ccccc1Cl	u	1.0%	3.4e-08	i	i

Carrying on:
SMILES	TSHR ag	AID923	A647 autofl	A488 fluor	Resorufin fluor
COc1ccc(/C(O)=C2\C(=O)C(=O)N(CC3CCCO3)C2c2cc(OC)ccc2OC)cc1 (stereo not given)	u	1.0%	1e-09	i	i
Cc1cc(NC(=O)c2cc3n(n2)C(C(F)(F)F)CC(c2ccc(Cl)c(Cl)c2)N3)no1 (stereo not given)	-4%	1.1%	3e-09	i	i
Cn1c(=O)c2c(nc(SCC(=O)N3CCc4ccccc43)n2Cc2ccccc2)n(C)c1=O	14%	-2.4%	1.6e-08	i	i
COc1ccc(C(=O)N2CCC[C@@]3(CCN(c4ccncc4)C3)C2)cc1	20%	-0.6%	1e-09	i	i
CCn1c(C)cc2c(c1=O)C(c1ccncc1)C(C#N)=C(N)O2 (stereo not given)	1%	6.2%	1e-09	i	i
CC(C)(C)N1C(=O)c2ccc(C(=O)Nc3nccs3)cc2C1=O	-17%	-4.0%	x	x	x
COCC(=O)Nc1cc(C)c2c(=O)oc3ccccc3c2n1	4%	-1.6%	x	x	x
OCCN(CC(O)Cn1ccc2ccccc21)CC(O)Cn1ccc2ccccc21 (stereo not given)	-8%	0.8%	2.4e-09	i	i
Cc1ccc(/C(O)=C2\C(=O)C(=O)N(CC(C)O)C2c2cccc(F)c2)cc1 (stereo not given)	6%	1.1%	2.1e-08	i	i
N#Cc1c(C(F)(F)F)cc(-c2ccco2)nc1SCc1ccncc1	u	6.3%	1.8e-08	i	i
COc1ccccc1-c1nc(-c2cccc(C)c2)no1	-5%	1.6%	4.6e-09	i	i
COc1cc(-c2nc3cnccn3c2Nc2ccc3c(c2)OCCO3)ccc1O	17%	0.4%	2.7e-08	i	i
COc1ccccc1N1CCN(C(=O)CCCC2=NS(=O)(=O)c3ccccc3N2)CC1	-7%	-1.9%	x	x	x
Cc1nc(SC(C)C)[nH]c(=O)c1Cc1ccccc1	14%	-1.5%	x	x	x
CCn1cc(C(=O)NCCCOC)c(=O)c2cc(S(=O)(=O)N(C)C3CCCCC3)ccc21	8%	1.4%	x	x	x
Clc1ccc(Nc2nc(-c3cccs3)cs2)nc1	5%	0.7%	4e-09	i	i
COc1ccc(-c2nc(CS(=O)CC(=O)NCCCN3CCCC3)c(C)o2)cc1OC (stereo not given)	1%	-2.1%	3.3e-09	i	i
O=C(Cn1nc(C(F)(F)F)c2c1CCC2)N1CCN(c2ccccc2)CC1	-1%	-1.2%	2.9e-08	i	i
Cn1c(=O)c(C(=O)Nc2ncccn2)c(O)c2ccccc21	-8%	2.7%	x	x	x
COCCN(Cc1cc2cccc(C)c2n2nnnc12)C(=O)C(F)(F)F	16%	0.9%	4.8e-08	i	i
CCOC(=O)c1cc(S(=O)(=O)NC2CCN(C(=O)OCC)CC2)cn1C	3%	0.3%	1e-09	i	i
Cc1ccc(O)c(Sc2cc(C)ccc2O)c1	-19%	-2.6%	4e-09	i	i
CCN(CCN(C)C)C(=O)Cn1ncc2c1-c1cc(C)ccc1OC2	9%	0.5%	x	x	x
CC(C)CCn1c(CN2CCN(C(=O)c3ccco3)CC2)nc2c1c(=O)n(C)c(=O)n2C	16%	1.8%	x	x	x

Screens as filed in PubChem BioAssay.
